CtBP-E1A inh = qHTS Assay for Inhibitors of the CtBP/E1A Interaction; CtBP / adenovirus E1A interaction (AlphaScreen); AlphaScreen GST-E1A/His-CtBP binding, 1536-well; active compounds read low; control for the full effect not named in the record; activity change, % (no concentration beside the values); 0.49% of 340,000 active; AID 651724, 2012; in the data active means activity change below about -65%; inconclusive means about -30% to -65%; inactive means above about -30%; also: % is scaled to controls: 0 for no effect and ±100 for the full control effect
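GST-E1A and His-tagged CtBP (125 nM each as 5X stock) were preincubated with pin-transferred compound for 2 h at 37 °C in the dark, then glutathione donor and nickel acceptor beads were added for 1 h before AlphaScreen reading.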
TRPML1 ag = qHTS for Agonists of the Human Mucolipin Transient Receptor Potential 1 (TRPML1). Mucolipin-1 (Homo sapiens), Q9GZU1. TRPML1-expressing cells, Ca2+ dye fluorescence, FDSS; host cell line not named in the record; reference of the full effect not given here. activation, % (concentration not given with the values). 0.12% of 410,000 active. AID 624414, 2012; in the data active = activation above about 50%; inconclusive = about 30% to 50%; inactive = below about 30%; also: 0% is about no effect; the text of the record puts the active cut at 80%
Target sequence (Q9GZU1 whole entry, looked up): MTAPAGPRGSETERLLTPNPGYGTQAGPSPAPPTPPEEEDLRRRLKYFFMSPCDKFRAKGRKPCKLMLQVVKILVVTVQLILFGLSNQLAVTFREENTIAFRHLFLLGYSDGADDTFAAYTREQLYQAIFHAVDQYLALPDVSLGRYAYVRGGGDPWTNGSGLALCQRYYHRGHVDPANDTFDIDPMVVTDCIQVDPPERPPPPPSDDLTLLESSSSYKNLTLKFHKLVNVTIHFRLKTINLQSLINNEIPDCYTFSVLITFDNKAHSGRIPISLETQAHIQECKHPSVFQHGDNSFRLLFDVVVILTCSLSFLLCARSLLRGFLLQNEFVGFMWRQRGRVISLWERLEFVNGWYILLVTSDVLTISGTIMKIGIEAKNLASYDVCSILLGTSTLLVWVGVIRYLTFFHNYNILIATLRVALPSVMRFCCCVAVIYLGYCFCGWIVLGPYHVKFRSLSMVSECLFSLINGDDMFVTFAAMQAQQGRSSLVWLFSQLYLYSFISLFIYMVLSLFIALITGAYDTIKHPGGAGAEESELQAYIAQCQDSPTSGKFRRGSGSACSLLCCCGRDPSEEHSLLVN
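Cells: TRPML1-DL, 1X Tet inducer, ~16 h at 37 degrees C/5% CO2. Dye: ABD Ca8 no-wash + quencher, 45-90 min RT. Read: 10 s baseline, compound add, 110 s agonist phase; 54-4 EC80 (4uM final), 110 s antagonist phase.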
Six1-Eya2 inh = qHTS Assay for Inhibitors of the Six1/Eya2 Interaction | AlphaScreen GST-Six1/His-Eya2 binding, biochemical; active compounds read low; control for the full effect not named in the record | activity change, % (concentration not given with the values) | Homeobox protein SIX1 (Homo sapiens) + Protein phosphatase EYA2 (Homo sapiens), … | AID 651725, 2012 | 0.56% of 360,000 active; in the data active = activity change below about -65%; inconclusive = about -30% to -65%; inactive = above about -30%; also: % is scaled to controls: 0 for no effect and ±100 for the full control effect
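Homogeneous AlphaScreen proximity assay pairing GST-Six1 with His-tagged Eya2 (added as 5X mix: 250 nM and 500 nM) in 50 mM Tris pH 8.0, 300 mM NaCl, 1 mM TCEP. Glutathione donor and nickel acceptor beads; 1 h, 37 °C, dark.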
D2 potentiator = Beta-Arrestin HTS for Positive Allosteric Modulators of the Human D2 Dopamine Receptor: Potentiators; D(2) dopamine receptor (Homo sapiens), P14416; DiscoveRx D2 beta-arrestin cells, luminescence, 90 min; 100% = 57 uM dopamine signal; potentiation, % (no concentration beside the values); 0.23% of 360,000 active; AID 624464, 2012; active = potentiation of 50% or more; inconclusive = 30% to 50%; inactive = 30% or less;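 also: compound concentration not given in the record; tested on top of an EC20 dose of dopamine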
Target sequence (P14416 whole entry, looked up): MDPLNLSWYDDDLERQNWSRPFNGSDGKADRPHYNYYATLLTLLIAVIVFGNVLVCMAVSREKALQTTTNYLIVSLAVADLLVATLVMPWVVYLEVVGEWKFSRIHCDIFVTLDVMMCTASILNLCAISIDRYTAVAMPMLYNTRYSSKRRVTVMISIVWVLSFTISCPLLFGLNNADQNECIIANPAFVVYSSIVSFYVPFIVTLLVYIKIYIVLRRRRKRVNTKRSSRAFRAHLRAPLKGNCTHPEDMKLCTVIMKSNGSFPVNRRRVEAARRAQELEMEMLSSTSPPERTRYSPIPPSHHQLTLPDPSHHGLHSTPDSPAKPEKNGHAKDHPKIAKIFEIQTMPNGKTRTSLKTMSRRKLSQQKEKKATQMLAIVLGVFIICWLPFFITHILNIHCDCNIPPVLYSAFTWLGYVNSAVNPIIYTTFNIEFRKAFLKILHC
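D2 cells co-treated with compound plus 50 nM dopamine (EC20) for 90 min at 37 deg C to detect potentiation. Beta-arrestin recruitment was read as enzyme-fragment luminescence after 1 h at ambient temperature. Full response was set by 57 uM dopamine.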
PINK1 modulator = A Quantitative High throughput Screen to Identify Chemical Modulators of PINK1 Expression | PINK1 immunofluorescence, high-content cytometry, 24 h | Potency, µM (series often up to 76.6 µM), for the others: top-dose activation (PINK1 increase), actives largely listed as activators | 0.2% of 410,000 active; active = well fitted activation curve with a large enough effect; inconclusive = small, poorly fitted or top-dose-only effect; inactive = flat fitted curve, though single readings scatter; cell line not stated here;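 also: potency is read from the fitted curve at half-maximal effect; % of control where 0% means no effect; nearly all actives have a fitted effect of over 65% in size; a mitochondrial uncoupler was the plate control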
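Stable cell line, 250 cells/well, 12 h attachment; compounds pinned at 5 concentrations, 24 h; CCCP control. Fixed with nuclear dye, primary antibodies 12 h at 10 degrees C, secondary plus cell stain; laser-scanning cytometer read.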
D2 agonist = Beta-Arrestin HTS for Positive Allosteric Modulators of the Human D2 Dopamine Receptor: Agonists. activation, % (test concentration not listed). AID 624465, 2012. DiscoveRx PathHunter D2 beta-arrestin, luminescence, 90 min; 100% = 57 uM dopamine signal. D(2) dopamine receptor (Homo sapiens), P14416. 0.084% of 360,000 active; in the data active = activation above about 40%; inconclusive = about 15% to 40%; inactive = below about 15%; also: compound concentration not given in the record; the text of the record calls up to 30% inactive
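Agonist mode: compounds alone added to overnight-plated D2 PathHunter cells for 90 min at 37 C, with 57 uM final dopamine (EC100) defining full response. Beta-arrestin recruitment detected by chemiluminescent reagent, read after 1 h at ambient temperature.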
* = called active by the depositor; ? = inconclusive; . = no result given; & = joins results of further samples; [ ] = remark or other dose. Rows were taken by chance. Share with any hit: about 1.3%.

Below each compound: CtBP-E1A inh	TRPML1 ag	Six1-Eya2 inh	D2 potentiator	PINK1 modulator	D2 agonist
COc1cc(OC)c2c(=O)c(OC)c(-c3ccc(OC)c(OC)c3)oc2c1
    -14	.	-7	-4	-0.3%&0.6%	4.0
O=C1C2CCCCN2C(=O)N1CCN1CCN(c2cccc(Cl)c2)CC1 (stereo not given)
    6	1.3	1	-10	2.0%	1.7
Cc1cccc(-n2c3nc(=O)[nH]c(=O)c-3cc3cc([N+](=O)[O-])ccc32)c1
    -11	1.3	-15	23	-3.0%	-4.9
COCCNC(=O)c1cccc(OC2CCN(Cc3ccccc3C)CC2)c1
    2	-0.2	-2	-15	2.7%	4.1
COc1ccc(OC)c(N(CC(=O)Nc2ccc3c(c2)OCO3)S(=O)(=O)c2ccccc2)c1
    -9	0.2	-23	-13	-3.1%	-3.6
CN(C)S(=O)(=O)Nc1cc(Cl)cc(Cl)c1
    -1	-0.7	6	1	2.2%	-2.9
Cc1ccc2c(C)c(C(=O)N3CCCCC3CO)oc2c1C (stereo not given)
    2	0.9	2	-9	0.7%	2.7
O=C(NCCc1ccc(Cl)cc1)/C(=C/c1cccnc1)NC(=O)c1ccccc1
    6	-0.3	3	-5	2.5%	-3.0
C[C@H](NC(=O)/C=C/[C@H]1O[C@@H](n2ccc(=O)[nH]c2=O)[C@H](O)[C@@H]1O)C(=O)O
    6	0.0	0	-2	0.7%	-6.5
O=C1C2C3C=CC(C3)C2C(=O)N1CN(Cc1ccccc1)CN1C(=O)C2C3C=CC(C3)C2C1=O (stereo not given)
    -2	0.1	3	-1	-4.4%[38.3 µM]	1.1
O=C(Cn1c(-c2ccccc2)noc1=O)Nc1ccc(S(=O)(=O)N2CCOCC2)cc1
    4	1.1	3	-17	0.5%	0.8
Cc1nn(-c2ccccc2Cl)c(Cl)c1/C=N/Nc1cccc(C(=O)O)c1
    -4	2.3	-3	10	6.4%	3.7
CC(C)NS(=O)(=O)c1ccc(CCC(=O)NCc2ccco2)cc1
    5	1.5	-1	1	-0.6%	-0.5
O=C(Nc1ccccc1)OCCOc1cccc(Br)c1
    5	0.1	16	-2	0.7%	-0.2
CC(=O)c1ccc(Nc2nc(C(N)CCc3ccccc3)cs2)cc1 (stereo not given)
    -7	1.1	1	-11	2.0%	2.9
CC1CN(c2ccnc3cc(Cl)ccc23)CC(C)O1 (stereo not given)
    -1	0.9	-4	-2	2.6%	5.7
Cc1ccc(N=Cc2nc(/C=C/c3cccc([N+](=O)[O-])c3)oc2O)cc1
    4	3.1	3	-14	?	2.1
COc1ccc(-n2c3c(cc(C(=O)N4CCN(CCO)CC4)c2=O)C(=O)CC(C)(C)C3)cc1
    8	0.2	1	-9	.	-2.2
Cc1ccccc1CN(C)CCS(=O)(=O)c1cc(Cl)ccc1Cl
    18	2.8	18	-7	-0.8%	-1.9
CCOC(=O)N(C)c1c(CC)nc2c(OCc3ccccc3C)cccn12
    0	-1.2	7	-4	1.7%	5.4

A draw from above in order of molar mass, low to high.
Below each compound: CtBP-E1A inh	TRPML1 ag	Six1-Eya2 inh	D2 potentiator	PINK1 modulator	D2 agonist
Cc1cccc(-n2c3nc(=O)[nH]c(=O)c-3cc3cc([N+](=O)[O-])ccc32)c1
    -11	1.3	-15	23	-3.0%	-4.9
Cc1ccc(N=Cc2nc(/C=C/c3cccc([N+](=O)[O-])c3)oc2O)cc1
    4	3.1	3	-14	?	2.1
CC(=O)c1ccc(Nc2nc(C(N)CCc3ccccc3)cs2)cc1 (stereo not given)
    -7	1.1	1	-11	2.0%	2.9
C[C@H](NC(=O)/C=C/[C@H]1O[C@@H](n2ccc(=O)[nH]c2=O)[C@H](O)[C@@H]1O)C(=O)O
    6	0.0	0	-2	0.7%	-6.5
COCCNC(=O)c1cccc(OC2CCN(Cc3ccccc3C)CC2)c1
    2	-0.2	-2	-15	2.7%	4.1

(listing goes on)
Below each compound: CtBP-E1A inh	TRPML1 ag	Six1-Eya2 inh	D2 potentiator	PINK1 modulator	D2 agonist
Cn1c(=O)c(-c2ccccc2)nc2ccccc21
    3	0.1	7	-22	1.0%[38.3 µM]	0.1
COc1ccc(OCCn2c(C)nc3ccccc32)cc1
    -17	-0.3	-2	-13	-0.3%	-1.9
Cc1ccc([C@@H]2CC(=O)[C@@H]3CN(S(=O)(=O)c4ccc(C)cc4)[C@H](c4ccccc4F)C[C@@H]3N2S(=O)(=O)c2ccc(Cl)cc2)cc1
    2	0.3	0	-3	0.2%	3.7
O=C(O)CCc1ccc(S(=O)(=O)Nc2ccccc2N2CCCCC2)cc1
    3	-0.4	-1	0	-1.6%	5.5
CC(=O)Nc1ccc(NC(=O)COC(=O)c2ccc(C)s2)cc1
    -3	0.0	6	-1	-0.7%	2.5
Cc1cccc(N2CCN(c3ccc(N4C(=O)CCCC4=O)cc3[N+](=O)[O-])CC2)c1C
    3	1.4	4	-1	7.6%	1.7
CCC(=O)OCC(=O)N=c1sccn1Cc1ccccc1Cl
    6	0.5	1	20	-0.2%	2.5
CCOc1ccc(NC2=NCCC(=O)N2Cc2cccs2)cc1
    -3	0.2	-6	-15	-0.9%	-0.8
Cc1ccc(-n2nc3c4c(cccc4c2=O)-c2ccccc2-3)cc1
    2	1.1	-2	9	11%[38.3 µM]	-0.8
CC(=O)NC1N=C(C)N(c2ccccc2)C1=O (stereo not given)
    3	1.4	12	-16	-0.9%	-2.7
O=[N+]([O-])c1cc([N+](=O)[O-])c(Oc2cccnc2Br)cc1NN1CCCCC1
    -10	-1.0	-22	4	2.1%	0.8
Cc1ccc(S(=O)(=O)N2CCOCC2)cc1NC(=O)CNCc1ccccn1
    -94*	.	-69*	-4	0.7%	?
O=C(O)CN(c1ccccc1[N+](=O)[O-])S(=O)(=O)c1ccccc1
    .	0.5	-3	-5	3.2%	-0.4
O=C(c1cccc(OC2CCN(C3CCCC3)CC2)c1)N1CCCCCCC1
    -2	-0.1	1	-6	-1.3%	0.0
O=C(CSc1nc2cc(Cl)ccc2s1)N1CCCc2ccccc21
    7	2.9	9	-12	.	-1.9
COc1ccc(/C=N\NC(=O)c2ccccc2)cc1COc1ccccc1
    2	1.0	-22	-21	3.3%	-1.3
COCCNC(=O)C(c1ccc(F)cc1)N(C(=O)CCC(=O)Nc1nccs1)c1cccc(C)c1 (stereo not given)
    8	0.6	1	-10	0.6%	-3.2
COc1ccc(N(CC(=O)Nc2c(C)n(C)n(-c3ccccc3)c2=O)S(=O)(=O)c2ccc(C)cc2)cc1
    -16	1.8	2	4	-3.0%	0.1
O=C(O)CCCCCN1C(=O)/C(=C\c2ccc(-c3ccc(Cl)cc3)o2)SC1=S
    4	3.0	-7	13	2.5%	-3.2
CC1=C(C(=O)Nc2ccccc2)C(c2ccncc2)C(C#N)=C(SCC(=O)NC(C)C)N1 (stereo not given)
    9	0.7	-1	0	-2.3%	-2.7
COc1ccc(CSc2nnnn2Cc2ccccc2)cc1OC
    9	0.5	-1	-3	1.0%[38.3 µM]	-2.3
CCOC(=O)Cc1csc(NC(=O)c2ccc(F)cc2)n1
    -4	0.1	1	2	0.0%	-0.1
CCN(CC)c1ncccc1C(=O)NCc1cccs1
    2	0.1	4	-8	-2.7%[38.3 µM]	0.3
COc1cc(NC(=O)Nc2cccc(C(C)=O)c2)cc(OC)c1OC
    -1	0.6	-8	-8	4.4%	-2.6
C=CCc1ccc(OCC(O)COCC)c(OC)c1 (stereo not given)
    1	0.6	10	-6	-1.9%	-1.5
CC(C)(C)Cc1c(-c2cccc(Br)c2)nc2ccc(Cl)cn12
    -7	0.4	-8	-16	?	-3.6
CCOC(=O)c1oc2ccccc2c1COC(=O)CNC(=O)c1ccccc1
    2	0.1	5	-4	0.1%	-1.7
COc1cccc(C2CC(c3cccs3)=NN2C(=O)CSC2=NN3CCCC(=O)N=C3S2)c1OC (stereo not given)
    -4	0.3	2	-6	3.6%	0.8
Cc1ccccc1NC(=S)Nn1cnnc1
    -3	0.3	-10	-15	-0.8%	7.9
CCN1C(=O)Cc2cc(S(=O)(=O)N3CCOCC3)ccc21
    -2	0.1	1	-29	0.7%	-6.5
O=C(NNC1=Nc2cc([N+](=O)[O-])ccc2OC1)c1ccccc1Cl
    2	0.2	2	-18	6.2%	-4.1
NS(=O)(=O)c1ccc(CCNC(=O)C(=O)c2cn(CC(=O)N3CCOCC3)c3ccccc23)cc1
    3	-0.5	1	-6	6.9%	-0.4
C/C(=N/NC(=O)CCC(=O)Nc1ccc(Br)cc1)c1ccc(Br)cc1
    0	-0.8	10	-7	18%	-2.1
O=C(CCC(=O)N1CCOc2ccccc21)NCc1cccnc1
    6	0.4	6	-9	-0.7%	-2.4
CCOC(=O)/C(C)=N/NC(=O)c1cccc([N+](=O)[O-])c1
    0	0.2	-2	-5	3.4%	-1.4
CN(C)CCOC(=O)COc1ccc(Cl)cc1
    6	-0.1	4	-10	3.8%	-5.7
COc1cccc(CN2CCC(Oc3ccc(C(=O)NCc4ccccn4)cc3)CC2)c1
    -3	-0.2	-6	-16	-0.9%	-1.3
O=C1CSCN1c1ccc(Cl)cc1
    .	1.0	10	-8	-0.5%	-1.8
CCn1c2c(c(=N)c3c1CCC3)CCC2
    8	0.3	-3	-8	3.1%	-2.5
CCOC(=O)/C(C#N)=C/c1cccc(F)c1
    0	1.0	0	0	-0.7%	2.9
C/C(=N\NC(=O)c1ccc([N+](=O)[O-])cc1Cl)c1ccccc1
    .	1.6	6	2	1.9%	-0.5
CC(C)(C)c1ccc(S(=O)(=O)NNC(=O)C2CCN(Cc3cccc(F)c3)CC2)cc1
    25	1.0	4	-10	1.2%	3.4
CC(C)Cn1c(CCC(N)=O)nnc1SC(C)C(=O)Nc1ccc2c(c1)OCO2 (stereo not given)
    0	0.3	5	-1	0.8%	-2.0
COc1cccc(N(C(=O)Cn2nnc(-c3ccc(F)cc3)n2)C(C(=O)NCC2CCCO2)c2ccc(Cl)cc2)c1 (stereo not given)
    .	1.4	2	8	3.2%	2.8
Cc1ccc(S(=O)(=O)N2C(=O)CCC2C(=O)Nn2cnnc2)cc1 (stereo not given)
    4	-0.6	-1	-2	0.7%[38.3 µM]	-0.6
C#CCNC(=O)C[C@@H]1C[C@@]2(C(=O)OC)CCCCC=C2N(Cc2ccco2)C1=O
    2	-0.8	1	.	-0.3%	.
CC1CC(C)CN(C(=O)COC(=O)c2ccc3c(c2)C(=O)N(Cc2ccco2)C3=O)C1 (stereo not given)
    -2	1.3	0	4	1.0%	3.3

Source: PubChem (National Center for Advancing Translational Sciences (NCATS))
